Source: PubChem (several laboratories)
RecA intein inh – Mtb RecA intein splicing inhibition | P9WHJ3 | cell-free RecA intein splicing, fluorescence | inhibition, %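 (about 9 µM by stock and volumes)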 | 290,000 compounds, 0.75% hits | AID 2221; in the data active = inhibition above about 30%;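 note: 0% = vehicle wells and 100% = reference inhibitor control wells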
Target sequence (P9WHJ3 whole entry, looked up): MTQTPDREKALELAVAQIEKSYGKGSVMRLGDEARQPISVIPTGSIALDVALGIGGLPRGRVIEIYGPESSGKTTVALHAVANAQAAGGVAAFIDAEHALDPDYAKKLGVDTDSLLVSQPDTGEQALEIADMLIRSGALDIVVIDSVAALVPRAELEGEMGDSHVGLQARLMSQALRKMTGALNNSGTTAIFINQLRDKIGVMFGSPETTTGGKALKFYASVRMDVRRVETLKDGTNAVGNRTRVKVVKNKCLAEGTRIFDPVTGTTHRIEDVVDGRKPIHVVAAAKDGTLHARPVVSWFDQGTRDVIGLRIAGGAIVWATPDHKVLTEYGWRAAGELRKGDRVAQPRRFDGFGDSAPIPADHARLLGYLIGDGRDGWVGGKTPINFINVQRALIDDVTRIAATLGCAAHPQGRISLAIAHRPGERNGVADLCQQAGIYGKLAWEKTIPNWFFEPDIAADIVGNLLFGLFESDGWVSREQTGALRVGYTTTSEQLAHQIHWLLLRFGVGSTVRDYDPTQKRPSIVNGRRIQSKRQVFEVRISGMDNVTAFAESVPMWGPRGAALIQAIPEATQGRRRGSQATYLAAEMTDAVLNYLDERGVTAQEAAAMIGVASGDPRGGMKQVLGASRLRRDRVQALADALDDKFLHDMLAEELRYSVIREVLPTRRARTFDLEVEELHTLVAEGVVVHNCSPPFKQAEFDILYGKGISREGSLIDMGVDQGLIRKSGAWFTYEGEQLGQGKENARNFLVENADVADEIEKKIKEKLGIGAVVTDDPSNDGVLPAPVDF
YopH inh – YopH (Yersinia) phosphatase inhibition. fluorescence Ex485/Em525. inhibition, %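 (about 10 µM by stock and volumes)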. 140,000 compounds, 0.16% hits. AID 898;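 active = inhibition of 50% or more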;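 note: controls were vehicle for no effect and minimum signal wells for full effect; inactives centre near -20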
Mtb betalactam – beta-lactam sensitization of Mtb H37Rv; M. tuberculosis H37Rv growth with meropenem, percent inhibition; hits of this screen are not shown here; inhibition, % at 25 µM; 330,000 compounds, 0.27% hits; AID 434955;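 active = about 74% or more and at least 40 points above the plate without the antibiotic, then above 30% in a dose series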;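 note: growth measured after seven days incubation then overnight dye step; 0% = bacteria only wells and 100% = bacteria with antibiotic; twin plates without the antibiotic show which effects depend on it; some results filed as inactive read as strong as hits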
Arbovirus anti – arbovirus infection inhibition; arbovirus infection cell-based antiviral screen; inhibition, % at 10 µM; 200,000 compounds, 0.37% hits;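 active = inhibition from about 30%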;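 note: bluetongue infection of BSR cells; cell survival read as ATP light after 72 h; 0% = infected wells without compound and 100% = uninfected wells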
Mtb H37Rv – M. tuberculosis H37Rv growth inhibitors, H37Rv strain (AID 1626). M. tuberculosis H37Rv growth inhibition; higher % means a stronger effect. inhibition, % at 10 µM, or IC50 in µM where a hit was titrated. 220,000 compounds, 0.95% hits;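 active = confirmed in a dose series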;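 note: bacteria incubated seven days before Alamar blue readout; 0% = bacteria only wells and 100% = bacteria with antibiotic wells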
Arbovirus anti repeat – further read-out of Arbovirus anti, marked with its call; inhibition, %; measured here: 10K subset replicate screen; many hits read low in the repeat;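 first of two repeat runs on a subset; 0% = infected and 100% = uninfected wells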
* hit, by the source's call; . = no result given.

SMILES	RecA intein inh	YopH inh	Mtb betalactam	Arbovirus anti	Mtb H37Rv	others
COC(=O)c1nc(NC(=O)c2ccc(C(C)(C)C)cc2)n[nH]1	33*	.	.	11	2%
O=C(Nc1nccs1)c1cn(-c2ccccc2)nc1-c1ccccc1	9.9	-10	96	-9	>100µM*
CCCn1nnnc1SCC(=O)NC1CCCC1	-3.1	.	-6	.	.
COc1cc(-c2nc(-c3cccc(C(F)(F)F)c3)no2)cc(OC)c1OC	1.7	-35	-2	-1	-8%
Nc1nonc1-n1nnc(C(=O)N/N=C/c2ccccc2)c1CN1CCc2ccccc21	0.5	.	3	.	.
O=C(OC1CCOC1=O)c1cccc(S(=O)(=O)N2CCc3ccccc3C2)c1 (stereo not given)	2.2	.	-10	1	-5%
N#Cc1ccccc1NC(=O)c1ccccc1OCC(=O)NCc1ccco1	0.7	-6	-4	31*	5%
CCOc1ccc(CCNC(=O)c2cccc(NC3=NC4CS(=O)(=O)CC4S3)c2)cc1 (stereo not given)	-5.8	.	2	.	.
COc1ccc(CSc2nc3nc(C)cc(C)n3n2)cc1F	-2.3	.	1	.	.
CC12CN3CN(C1)CC(C)(C3)C2=NO	-0.1	-20	1	0	-2%
Cc1ccc(-n2ncc(C#N)c2/N=C/N2CCCCCC2)cc1	.	-14	14	-8	.
Cc1noc(C)c1COc1ccc(C(=O)OC(C)C(=O)Nc2ccc(N3CCOCC3)cc2)cc1 (stereo not given)	1.5	-36	-6	-10	7%
COc1cc(O)c(C(CCN2CCCC(C)C2)c2ccc(N(C)C)cc2)c(OC)c1 (stereo not given)	-3.2	.	-11	.	-8%
Cn1c(N)c(C(=O)COC(=O)CSc2ccccc2)c(=O)n(C)c1=O	-0.2	-7	4	0	-7%
COc1ccc(-c2cc(C)no2)cc1S(=O)(=O)N1CCOc2ccc(Cl)cc21	-1.3	.	-2	.	.
COc1cc(S(=O)(=O)NCc2ccc3c(c2)OCO3)ccc1Cl	1.9	-54	3	-3	4%	Arbovirus anti repeat=3
CC(C)(C)n1ncc2c(=O)n(CC(=O)Nc3ccc4c(c3)OCO4)cnc21	-1.5	0	-14	11	-2%
CC(=O)Oc1c(S(=O)(=O)c2ccccc2)c(C)nn1C(C)(C)C	3.1	19	2	2	-5%
CCNC(=O)c1c(C)nc2ccccn12	-1.2	-16	-13	1	-10%	Arbovirus anti repeat=4
Cc1cccc(C)c1NC(=O)NC1(C(=O)N2CCN3CCCC3C2)CCCCC1 (stereo not given)	0.1	.	0	.	.

By substructure, the entries above containing nitrogen in an aromatic ring
SMILES	RecA intein inh	YopH inh	Mtb betalactam	Arbovirus anti	Mtb H37Rv	others
COC(=O)c1nc(NC(=O)c2ccc(C(C)(C)C)cc2)n[nH]1	33*	.	.	11	2%
O=C(Nc1nccs1)c1cn(-c2ccccc2)nc1-c1ccccc1	9.9	-10	96	-9	>100µM*
CCCn1nnnc1SCC(=O)NC1CCCC1	-3.1	.	-6	.	.
COc1cc(-c2nc(-c3cccc(C(F)(F)F)c3)no2)cc(OC)c1OC	1.7	-35	-2	-1	-8%
Nc1nonc1-n1nnc(C(=O)N/N=C/c2ccccc2)c1CN1CCc2ccccc21	0.5	.	3	.	.
COc1ccc(CSc2nc3nc(C)cc(C)n3n2)cc1F	-2.3	.	1	.	.
Cc1ccc(-n2ncc(C#N)c2/N=C/N2CCCCCC2)cc1	.	-14	14	-8	.
Cc1noc(C)c1COc1ccc(C(=O)OC(C)C(=O)Nc2ccc(N3CCOCC3)cc2)cc1 (stereo not given)	1.5	-36	-6	-10	7%
Cn1c(N)c(C(=O)COC(=O)CSc2ccccc2)c(=O)n(C)c1=O	-0.2	-7	4	0	-7%
COc1ccc(-c2cc(C)no2)cc1S(=O)(=O)N1CCOc2ccc(Cl)cc21	-1.3	.	-2	.	.
CC(C)(C)n1ncc2c(=O)n(CC(=O)Nc3ccc4c(c3)OCO4)cnc21	-1.5	0	-14	11	-2%
CC(=O)Oc1c(S(=O)(=O)c2ccccc2)c(C)nn1C(C)(C)C	3.1	19	2	2	-5%
CCNC(=O)c1c(C)nc2ccccn12	-1.2	-16	-13	1	-10%	Arbovirus anti repeat=4

The list goes on.
SMILES	RecA intein inh	YopH inh	Mtb betalactam	Arbovirus anti	Mtb H37Rv	others
COC1C=CC(CNC(=O)c2cc3c(=O)n4cccc(C)c4nc3n2C)(OC)O1 (stereo not given)	-2.5	.	-8	0	-1%
Cn1cnnc1SCC(=O)NCCc1ccccc1	-0.4	-11	3	-1	-4%
Cc1cc(C(=O)N/N=C\c2cc(C(C)(C)C)ccc2O)n[nH]1	-6.5	.	-5	.	.
CC(C)CC(=O)Nc1ccc(C(=O)Cn2nc(C(=O)O)c3ccccc3c2=O)cc1	0.2	2	-12	10	-2%
O=C(Nc1c(C(=O)O)[nH]c2ccccc12)c1cccc(C(F)(F)F)c1	3.8	.	0	.	-4%
CCN(CC)CCCNc1cc2n(c(=O)n1)CCc1cc(OC)c(OC)cc1-2	-2.2	-26	-8	1	-4%
CN1C(=O)NC(=O)C(C)(C2=CCCCC2)C1=O (stereo not given)	-1.3	.	-9	.	.
CCCSc1nc(N)nc(-c2cccs2)c1C#N	13	-33	-7	-22	2%
CCOC(=O)C1CCN(Cc2cnc(Oc3ccc(Cl)cc3C)s2)CC1	9.0	-43	49	2	-2%
Cc1ccc2oc(NC(=O)N3CCOCC3)cc(=O)c2c1	-3.3	-9	-1	-1	-8%
N#Cc1cc(C(=O)c2cc(Br)ccc2O)cn(Cc2ccccc2)c1=O	-5.5	.	1	7	50%
COCCN(CCOC)c1nc(N)c2c(N)nc3c(c2c1C#N)CC(=O)N3Cc1ccc(Cl)cc1	-12	-11	6	-8	-2%
c1ccc2c(c1)ccc1nnc(SCc3ccc4c(c3)OCO4)n12	-2.3	-60	-5	-3	20%
O=[N+]([O-])c1ccc(Oc2ncccn2)cc1	-0.8	.	-7	.	.
CCCN1C(=O)/C(=C/c2ccc(OCC(=O)OCC)cc2)NC1=S	4.5	.	.	-1	69%
CNC(=O)C(NC(=O)c1ccccc1)=C(C)C	0.9	.	-4	.	-6%
CC(=O)c1cnc2nc(SCc3ccc(C)cc3)nn2c1C	2.7	.	5	.	.
COc1ccc(/C=C2/C(=O)N(Cc3ccccc3)N=C2C)cc1	59*	-19	2	-11	3%
COc1ccc(Cl)c2sc(N(CCN(C)C)C(=O)c3ccc4c(c3)OCCO4)nc12	-0.2	.	-11	.	.
CSc1nc(C(=O)N2CCCC(C(=O)c3ccc(Cl)cc3)C2)cs1 (stereo not given)	3.8	.	-14	6	-2%

The last 2 records of the section above open the next one.
SMILES	RecA intein inh	YopH inh	Mtb betalactam	Arbovirus anti	Mtb H37Rv	others
COc1ccc(Cl)c2sc(N(CCN(C)C)C(=O)c3ccc4c(c3)OCCO4)nc12	-0.2	.	-11	.	.
CSc1nc(C(=O)N2CCCC(C(=O)c3ccc(Cl)cc3)C2)cs1 (stereo not given)	3.8	.	-14	6	-2%
CCOC(=O)c1c(NC(=O)c2ccc(Br)o2)sc2c1CCCC2	-2.9	-41	8	2	5%
Cc1cc(C)nc(N/N=C/c2ccc(Cl)cc2)n1	-2.1	.	5	.	1%
O=C(CN1C(=O)C2CC=CCC2C1=O)Nc1nnc(SCc2ccc(F)cc2)s1 (stereo not given)	1.4	-6	-3	12	2%
COc1ccc(NS(=O)(=O)c2ccc(C)c(C(=O)N(C)CC(=O)Nc3cccc(OC)c3)c2)cc1	0.9	.	3	.	.
CCOC(=O)c1ccc(NC(=O)N2CCN(S(C)(=O)=O)CC2)cc1	0.3	5	-9	0	23%
COc1ccc(C(=O)Nc2nc3ccc4nc(C)sc4c3s2)cc1	-0.4	-49	-3	12	9%
CN1C(=S)SC2CS(=O)(=O)CC21C (stereo not given)	-0.2	.	-1	.	-6%
CCOc1cc(/C=C2\SC(=O)N=C2N)ccc1O	-2.4	1	2	-10	9%
Cc1ccc(CN2CCN(c3ccccc3Cl)CC2)o1	1.1	.	-5	.	.
Cc1cc(NS(=O)(=O)c2ccc(NC(=O)CCCOc3ccccc3)cc2)no1	.	0	40	8	2%
Clc1ccc(-c2noc(CCCOc3ccccc3)n2)cc1	.	-1	-2	11	0%
C=CCNC(=O)CC(=O)N/N=C/c1ccc(F)cc1	-0.1	-27	-1	1	-13%
CC(NS(=O)(=O)c1ccc(F)cc1)C(=O)NCc1ccncc1 (stereo not given)	-1.1	-17	0	4	4%
O=C(CN1C(=O)c2ccccc2C1=O)Nc1ccc(S(=O)(=O)NCC2CCCO2)cc1 (stereo not given)	0.1	9	-3	0	3%
CC[C@@]1(O)C(=O)OCc2c1cc1n(c2=O)Cc2cc3ccccc3nc2-1	-13	.	1	.	-16%
COC(=O)c1sccc1S(=O)(=O)N1CCCC(N(C)CCc2ccccn2)C1 (stereo not given)	-7.7	.	1	.	.
O=P(O)(O)c1ccccc1OCCOCCOc1ccccc1P(=O)(O)O	.	-38	-3	2	-13%
Cc1nc(-c2cnn(-c3ccccc3)c2)c2cc(C)oc2n1	3.5	-25	10	0	13%
C/C=C/C=C/[C@H]1Cc2cc(O)cc(O)c2O1	-1.3	.	-4	.	-10%
Clc1ccc(OCc2nc(-c3ccncc3)no2)c(Cl)c1	2.3	7	7	-12	15%

Reprinted from the part before: two entries, followed by the next part.
SMILES	RecA intein inh	YopH inh	Mtb betalactam	Arbovirus anti	Mtb H37Rv	others
C/C=C/C=C/[C@H]1Cc2cc(O)cc(O)c2O1	-1.3	.	-4	.	-10%
Clc1ccc(OCc2nc(-c3ccncc3)no2)c(Cl)c1	2.3	7	7	-12	15%
Cc1cccc(-c2noc(CCC(=O)Nc3ccccc3)n2)c1	1.0	-24	36	-5	2%
CC(C)CC(CO)N1CCN(C(=O)c2ccc(Cl)cc2Cl)CCC1=O (stereo not given)	-0.6	-27	-6	0	-8%
CC1=NOC(=O)/C1=C/c1ccc(N(C)C)cc1	0.2	-31	-4	0	11%
O=C(c1cccc(S(=O)(=O)N2CCCCCC2)c1)N1CCN(c2ccccc2)CC1	4.6	.	5	-2	1%
Cc1cccc(N(CC(=O)N/N=C/c2ccc(OCC(=O)NCc3ccco3)cc2)S(C)(=O)=O)c1C	6.3	-16	-4	4	8%
COc1ccc(/C=C2\N=C(c3ccc(C)cc3)OC2=O)cc1	0.3	.	99	.	.
COc1ccc(NC(=O)CN2C(=O)CSC2=O)cc1	0.0	.	-3	1	-2%
COc1ccccc1NC(=O)c1ccc2snnc2c1	1.4	.	4	-5	7%
CCCOc1ccc(C2CC(=O)Nc3cc(OC)c(OC)cc32)cc1 (stereo not given)	-0.7	.	2	.	.
CCN(CC)C(=O)CSc1nnc(-c2ccc(S(=O)(=O)NCc3ccccc3Cl)cc2)o1	.	-14	2	2	.
O=c1cc(CO)oc(C(Nc2ccccn2)c2ccccc2Cl)c1O (stereo not given)	-2.7	.	0	3	7%

The list is partial (hit frequency here may not be typical).
